Mtb hypoxia inh = PubChem AID 1159583. M. tuberculosis hypoxia-regulated fluorescent reporter, fluorescence. fluorescence inhibition, % (no concentration beside the values). actives 0.1% (n = 300,000);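 active means 35 to 45% if threefold the growth effect, above 45% if 1.5-fold the growth effect; inactive means the rest, general growth blockers included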;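 further: wells of about 50 µL received 100 nL stock; 0% = vehicle wells and 100% = reference inhibitor wells; whole bacteria with a GFP reporter of the hypoxia response; strong numbers were not always called active; many hits fall short of the cut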
PrP 5UTR inh = inhibition of PrP 5' UTR reporter expression | inhibition, % (concentration not given with the values) | cell-based PrP 5' UTR mRNA reporter, plate reader | actives 0.35% (n = 340,000);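 active means every replicate at 50% or more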;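 further: 0 = median of the neutral control wells; tested in H4 reporter cells; numbers are from one replicate; inactives centre near -14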
Autofluor counter = compound fluorescence in toxin protease inhibitor counterscreen; compound autofluorescence counterscreen, microsphere flow cytometry; hits give high values; fluorescence intensity (no concentration beside the values); actives 3.1% (n = 360,000);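 active means at least 3 SD above the mean of all compounds, about 16000 in these data; inconclusive means too few beads counted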;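 further: 100 nL of 1 mM stock went into each well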
Sa ugtP lethal = growth inhibition of ugtP-null S. aureus, primary screen, RN4220 ugtP deletion, OD600; 16 h; some inactives read as strong as hits; growth inhibition, % (test concentration not listed); actives 0.54% (n = 330,000);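 active means z-score under -3 and OD600 up to 0.15 on both plates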;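 further: plate controls were untreated wells for no effect and antibiotic for full effect; wells of about 80 µL received 100 nL stock; the first replicate is given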
Sa RN4220 lethal = growth inhibition of S. aureus RN4220, primary screen, OD600. actives 0.33% (n = 330,000). 16 h. AID 1259311, 2017. inhibition, % (no concentration beside the values);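 active means z-score of -3 or lower and OD600 up to 0.18 on both plates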;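 further: plate controls were untreated cells for no effect and reference antibiotic for full effect; stock transfer was 100 nL into about 80 µL; one replicate is shown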
BJeLR viability = MLPCN primary cell-based screen for lethality selective to Ras in HRASV12 cells. inhibition, % (concentration not given with the values). BJeLR (HRASV12) viability, CellTiter-Glo ATP luminescence, 48 h; reference of the scale not given here. AID 1554, 2009. actives 0.17% (n = 300,000);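 active means replicate mean above 50%; inconclusive means above 50% but judged a plate artefact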;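 further: 50 nL library stock added to about 25 µL; numbers are from one replicate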
Mtb hypoxia inh growth = recorded beside Mtb hypoxia inh, whose call it bears; growth inhibition, %; measured here: M. tuberculosis growth (absorbance);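 0% = vehicle and 100% = reference antibiotic; read after six days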
* hit, by the source's call; ? = inconclusive; nt = not tested or not shown.

SMILES	Mtb hypoxia inh	Mtb hypoxia inh growth	PrP 5UTR inh	Autofluor counter	Sa ugtP lethal	Sa RN4220 lethal	BJeLR viability
COc1ccc(C(=O)CSc2nc3ccccc3n2CC(=O)NC(C)(C)C)cc1	-3.9	13.8	-11.8	2924	-29.0	1.1	nt
O=C(Oc1ccc(-c2cn3c(n2)SCC3)cc1)c1ccccc1	2.2	3.9	-32.2	20792*	-9.1	8.0	-12.5
CCn1cc(CNC(=O)C2CCC(=O)N(Cc3ccc(Cl)cc3)C2)cn1 (configuration not stated)	8.2	7.6	-26.1	nt	8.3	1.0	3.4
O=C(CCNS(=O)(=O)c1ccc2nsnc2c1)N1CCN(c2ccncc2)CC1	7.4	12.8	3.6	3825	-4.0	1.1	nt
Cn1cc(Cl)c(C(=O)NNC(=S)NC2CCCCC2)n1	2.9	2.7	-16.4	2483	-1.1	3.8	14.5
CNC(=S)NNC(=O)c1ccc(=O)n(Cc2ccc(Cl)cc2Cl)c1	0.5	2.0	-36.9	3639	4.6	4.0	3.1
COc1ccc(-n2c(SCCN(C)C)nc3ccccc3c2=O)cc1	6.2	-3.5	-34.5	6253	5.5	3.8	7.3
c1coc(CNc2nc(N3CCCCC3)nc3ccccc23)c1	-11.4	0.4	-17.8	2481	-25.6	0.7	-5.8
CN(C)CCNc1nc2c(c(=O)[nH]c(=O)n2C)n1CC(O)COc1ccc(Cl)cc1Cl (configuration not stated)	-4.1	3.8	-41.0	nt	8.0	15.3	-10.0
Cc1cc(OCC(=O)Nc2nnc(C3CC3)s2)ccc1C(C)C	14.6	4.8	-15.5	3544	2.7	7.4	nt
COCCCNC(=O)c1ccc(Cn2c(=O)[nH]c3ccccc3c2=O)cc1	12.8	11.8	-20.4	5295	4.1	2.4	nt
Cc1ccc(NC(=O)C2CCCCC2C(=O)O)cc1Cl (configuration not stated)	14.5	15.5	-2.7	3295	5.4	3.9	6.1
O=C(c1cc(Br)c(Br)s1)N1CCOCC1	6.2	-6.9	-16.9	6052	1.6	1.6	2.7
C=CCn1nnnc1SCC(=O)Nc1ccccc1C(=O)OC	9.8	8.2	-21.3	11289	-2.2	7.3	2.7
O=C(NCc1cccs1)C1CCN(S(=O)(=O)c2ccc3c(c2)OCCO3)CC1	-0.7	-1.1	-30.1	9561	7.3	0.1	-0.1

Overlap with the part before: six compounds; new compounds follow.
SMILES	Mtb hypoxia inh	Mtb hypoxia inh growth	PrP 5UTR inh	Autofluor counter	Sa ugtP lethal	Sa RN4220 lethal	BJeLR viability
Cc1cc(OCC(=O)Nc2nnc(C3CC3)s2)ccc1C(C)C	14.6	4.8	-15.5	3544	2.7	7.4	nt
COCCCNC(=O)c1ccc(Cn2c(=O)[nH]c3ccccc3c2=O)cc1	12.8	11.8	-20.4	5295	4.1	2.4	nt
Cc1ccc(NC(=O)C2CCCCC2C(=O)O)cc1Cl (configuration not stated)	14.5	15.5	-2.7	3295	5.4	3.9	6.1
O=C(c1cc(Br)c(Br)s1)N1CCOCC1	6.2	-6.9	-16.9	6052	1.6	1.6	2.7
C=CCn1nnnc1SCC(=O)Nc1ccccc1C(=O)OC	9.8	8.2	-21.3	11289	-2.2	7.3	2.7
O=C(NCc1cccs1)C1CCN(S(=O)(=O)c2ccc3c(c2)OCCO3)CC1	-0.7	-1.1	-30.1	9561	7.3	0.1	-0.1
CC(=Nc1ccccc1N)c1c(O)n(C)c(=O)n(C)c1=O	2.4	2.0	-13.4	3803	1.2	2.2	4.4
Cc1cccc(NC(=O)Cn2nnc3sc4c(c3c2=O)CC(C)(C)OC4)c1	15.3	11.4	nt	3377	9.8	1.5	4.8
N/C(=N\OS(=O)(=O)c1cccc([N+](=O)[O-])c1)c1ccncc1	nt	nt	-8.4	10437	nt	nt	-10.3
Oc1cccc(C(O)CNCc2ccc(OCc3ccc(Cl)cc3Cl)cc2)c1 (configuration not stated)	10.1	-1.0	-4.5	2701	-20.1	27.6	2.7
Cc1cc(C)n(C(=O)Cn2nc(C)c(Br)c2C)n1	11.3	2.3	-27.0	3904	5.1	0.3	-1.5
CN(C(=O)COC(=O)CSc1cc(Cl)ccc1Cl)c1c(N)n(Cc2ccccc2)c(=O)[nH]c1=O	11.7	-3.9	-10.0	7274	2.9	1.4	-1.0
COc1ccc(OC)c(C2C3=C(N=C4SCC(=O)N42)c2ccccc2CC3)c1 (configuration not stated)	-9.1	-1.3	-28.4	2474	-5.0	8.2	-2.7
O=C(O)c1cccnc1SCc1ccc([N+](=O)[O-])cc1	14.2	14.6	-24.0	3573	11.3	7.1	-2.2
Cc1ccccc1CSc1ccc(-c2ccc3c(c2)OCO3)nn1	1.7	5.6	-54.3	10885	13.0	16.5	-6.6
Nc1nc(-c2ccccc2)cn1/N=C/c1ccccc1	nt	nt	-45.3	3658	nt	nt	-1.9
C/C(CCc1ccccc1)=N\NC(=S)NCCc1ccccc1	nt	nt	-7.6	3266	nt	nt	-7.0
CCOc1nc(NCCC2=CCCCC2)nc(N2CCOCC2)n1	-8.5	-1.9	-2.7	4299	-6.8	-2.4	3.9
CCCCN1C(=O)C(=O)N(CC(=O)c2ccc3c(c2)CCCC3)C1=O	1.4	-0.3	nt	4288	9.9	6.7	nt
O=C(O)C1C2C=CC(C2)C1C(=O)OCC1CCCO1 (configuration not stated)	11.8	-0.6	-23.3	10557	7.9	4.3	-13.9
Cc1ccc(COc2ccccc2-c2cc(C(=O)NN=Cc3cccnc3)[nH]n2)cc1	8.2	1.5	nt	nt	-9.4	-1.5	nt
CN(C)C(CNC(=O)c1ccc2c(=O)n(-c3ccccc3F)c(=S)[nH]c2c1)Cc1ccccc1 (configuration not stated)	5.4	6.2	8.7	4420	0.3	7.6	1.6
COc1ccc2nc(C)cc(SCC(=O)N/N=C/c3ccc(O)cc3O)c2c1	nt	nt	11.5	2251	nt	nt	-17.4
O=C(NCCC1CCCCN1S(=O)(=O)c1ccccc1)C(=O)Nc1ccc(F)cc1F (configuration not stated)	11.4	1.4	-24.8	?	15.2	2.3	3.0
CC(C)CC(=O)c1c[nH]c(C(=O)NCCCN2CCOCC2)c1	5.5	1.5	-17.9	9125	-2.7	-1.4	-4.5
CCC(=NNc1ccccc1C)c1cnnc(SC)n1	1.0	0.6	nt	nt	-1.7	5.4	nt
CCn1cc(NC(=O)CCl)c(C)n1	nt	nt	nt	nt	3.7	5.8	7.4
COc1cc(OC)cc(C(=O)NCC(=O)OCc2ccc(Cl)c(Cl)c2)c1	5.3	10.9	-10.3	8867	1.8	1.1	nt
COc1ccc(S(=O)(=O)Nc2nnc(C(C)(C)C)s2)cc1	5.7	11.2	-13.0	9898	2.2	4.6	17.9
Cc1ccc(OC(=O)CCC(=O)Nc2ccc(Br)cc2)cc1	3.2	-4.2	-9.3	2644	-3.4	3.3	4.7
COc1ccc(-c2cc(C(=O)N(C)Cc3ccc(OC)c(OC)c3OC)c3ccccc3n2)cc1OC	14.7	5.8	-14.0	6197	6.6	4.4	-6.4
C/C(=N\Nc1ccccc1)c1cccc(N)c1	nt	nt	-7.6	3380	nt	nt	-0.8
CC1(C)Cc2ccccc2C(NNC(=O)c2ccc(Br)o2)=N1	-2.3	9.7	-22.6	6788	-3.8	0.4	4.4
CCOC(=O)C1=C(C(F)(F)F)Nc2ncnn2C1c1cc(OC)ccc1OC (configuration not stated)	5.7	1.9	-15.2	2016	3.6	1.6	15.1
CCc1ccc(-c2nc(CSCC(=O)NCCCN3CCCC3=O)c(C)o2)cc1	-0.8	-4.5	-3.4	?	-6.6	0.2	-7.7
NS(=O)(=O)c1ccc(OC(=O)CNC(=O)OCc2ccccc2)cc1	-6.3	-6.4	-10.5	3939	5.7	-0.8	-7.7
CS(=O)(=O)c1ccc(NC(=O)c2cccc(S(=O)(=O)N3CCN(Cc4ccccc4)CC3)c2)cc1	8.6	7.3	-8.5	5510	3.7	-1.8	2.8
COC(=O)NC1(C(=O)O)CCCC1	10.7	7.6	3.2	4183	-3.2	4.5	-24.3
COc1ccccc1Oc1ccc(N/C=C/C(=O)c2ccco2)cc1	-8.0	3.1	-84.7	4885	-4.6	-2.9	4.2
COc1ccc(CC(=O)O/N=C(\N)Cc2ccc(OC)c(OC)c2)cc1	6.2	15.3	-10.3	10660	3.4	0.2	5.4
COc1ccc(NN=C(C)C(=NO)C(=O)Nc2ccccc2)cc1	1.4	3.0	nt	nt	-2.6	1.8	nt
COc1ccc(N(CC(=O)NC2CCCC2)C(=O)c2ccc(N3CCCCC3)nc2)cc1	nt	nt	-8.6	2512	0.3	0.5	1.2
COc1ccc(NCC(=O)NN=Cc2ccc3c(c2)OCCO3)cc1	7.2	3.6	nt	nt	1.6	1.0	nt
CC1(C)CC(=O)C2=C(C1)NCN(Cc1ccc3c(c1)OCO3)C2	nt	nt	0.2	2710	5.6	4.8	6.0
O=C(N/N=C/c1c[nH]c2ccccc12)c1cc(-c2ccc3ccccc3c2)n[nH]1	nt	nt	-2.5	1901	nt	nt	17.1
CCn1c(SCc2ccccc2)nc2cc(OC)c(OC)cc2c1=O	-4.8	0.0	-14.9	3330	3.7	6.1	-0.3
O=C(NCc1cccs1)C(=O)NCC1OCCCN1S(=O)(=O)c1cc(F)ccc1F (configuration not stated)	3.0	-2.9	-23.6	6404	3.6	2.2	-5.9
COc1ccc(S(=O)(=O)N(C)CC(=O)Nc2ccc(C(F)(F)F)cc2)cc1Cl	1.3	3.7	-11.6	8028	-2.1	0.5	4.9
CCOc1ccc(NC(=O)CSc2nnnn2C2CC2)cc1S(=O)(=O)N1CCCC1	nt	nt	-16.5	2875	4.3	5.7	nt
Cc1sc2ncnc(NCc3ccco3)c2c1C	nt	nt	-38.0	2891	nt	nt	9.0
O=C1Nc2ncccc2OC1CCCl (configuration not stated)	-1.9	-1.7	-6.6	4537	12.3	4.2	-1.5
COc1ccc(C(=O)Nc2ccc(C(=O)c3ccccc3)cc2)cc1	12.5	2.0	nt	4291	1.2	4.8	3.4
Cc1cccc(N(C(=O)c2csnn2)C(C(=O)NCc2ccccc2)c2cccs2)c1 (configuration not stated)	-2.3	1.1	-21.2	3942	6.6	4.0	6.9
COc1ccccc1C(O)(C(=O)NNc1cccc(C)c1)c1ccccc1OC	8.2	-1.7	-3.4	2345	2.8	3.8	-7.6
CCOC(=O)n1c(=O)n(Cc2ccccc2Cl)c2ccccc21	nt	nt	-18.7	2781	-0.3	-2.5	0.9
CC(C)n1c(=NC(=O)c2ccco2)c(C#N)cc2c(=O)n3ccccc3cc21	-10.1	3.6	-8.8	3341	10.0	5.9	2.6
C=CCn1c(SCC(=O)NC(=O)NCc2ccco2)nc2sc(CC)cc2c1=O	9.3	9.9	-18.0	4372	-9.2	3.8	-5.0
CC(=O)CCc1ccc(Oc2nc(-c3cccnc3)nc3ccccc23)cc1	8.4	21.2	-4.6	3302	3.0	0.3	2.6
COc1cccc(CN2CCNC(=O)C2CC(=O)NCCn2cccn2)c1OC (configuration not stated)	-3.5	8.3	-17.8	2503	5.6	1.1	0.1
CCCNC(=O)C1CN(S(=O)(=O)c2ccccc2)CCN1S(=O)(=O)c1ccccc1 (configuration not stated)	2.9	-0.6	-20.0	7050	15.5	5.8	-3.7
Nc1nc(SCC(=O)Nc2cc(Cl)ccc2Cl)n[nH]1	7.9	5.2	53.1	2998	4.8	3.0	nt
CCOC(=O)C1(CC2CCCCO2)CCN(Cc2nccn2-c2ccc(OC)cc2)CC1 (configuration not stated)	6.4	10.5	-27.5	4158	9.2	2.0	1.0
CCOC(=O)C1=C(CC)Nc2ccccc2N/C1=N\S(=O)(=O)c1cccc(C(C)=O)c1	7.4	-0.8	-18.8	7791	-1.4	7.6	nt
CCOc1ccc(-n2c(O)c(C=NCCCn3ccnc3)c(=O)[nH]c2=O)cc1	0.5	6.9	-11.7	10296	-1.6	-2.4	8.6
Cc1cc(OCC(=O)N2CCN(c3ccccc3)CC2)c2c(C)cc(=O)oc2c1	-3.4	-6.9	-2.4	5196	-2.4	1.9	7.7
O=C(COc1ccccc1/C=C1/NC(=O)NC1=O)Nc1ccccc1	11.9	7.8	-19.8	2558	13.3	1.1	-2.3
O=C(O)c1cc2cc(Cl)ccc2oc1=O	5.8	2.8	-5.9	22395*	9.2	4.6	-4.6
Fc1cnc(NN=Cc2ccc(-c3ccc(Br)cc3)o2)nc1N1CCOCC1	1.8	-3.0	nt	nt	24.0	38.9	nt
